# Screening data from PubChem.
# HPGD block: blocks human HPGD enzyme activity; P15428; actives 4.3% (n = 150,000); purified HPGD, NADH fluorescence kinetic, PGE2 substrate; Potency, µM, inactives show at the top dose activity change, negative = inhibition, hits mostly inhibitors; active = well fitted inhibition curve with a large enough effect (not every such curve was filed as active); inconclusive = small, poorly fitted or top-dose-only effect, or another doubt; inactive = no such curve, though single readings can be large or run the other way;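 further: top concentration of the series not given in the record; plate controls included wells without enzyme; inactives centre near -10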
# Target sequence (P15428 whole entry, looked up): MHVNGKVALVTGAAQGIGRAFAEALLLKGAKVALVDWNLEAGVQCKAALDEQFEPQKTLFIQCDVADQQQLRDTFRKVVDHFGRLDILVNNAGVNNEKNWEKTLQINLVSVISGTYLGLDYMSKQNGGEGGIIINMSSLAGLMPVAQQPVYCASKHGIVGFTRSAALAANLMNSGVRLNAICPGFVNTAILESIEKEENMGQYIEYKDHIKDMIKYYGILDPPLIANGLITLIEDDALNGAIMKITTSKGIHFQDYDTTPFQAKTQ
#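 NADH formation kinetics: reaction with 30 uM PGE2 and 1 mM NAD+ (final), 20 nM enzyme, Tris-HCl pH 8 with Tween 20, after 15 min compound preincubation at room temperature. Fluorescence change, last versus first of five reads.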
# * = called active by the depositor; ? = inconclusive; & = joins results of further samples. On the % scale 0 is the no-effect control and ±100 the full control effect; potency means the concentration at half of the fitted maximal effect.
mol	HPGD block
COc1ccc(N(CC(=O)N2c3ccccc3CC2C)S(=O)(=O)c2c(C)nn(C)c2C)cc1 (stereo unspecified)	-6%
Cc1cc(C)cc(NC(=O)/C=C/c2ccc([N+](=O)[O-])s2)c1	0%
CCCCOc1cc(CC2CNC(=O)N2)ccc1OC (stereo unspecified)	-12%&-2%
CCOC(=O)C(C)Sc1ncnc2c1c(-c1ccccc1)cn2-c1ccc(OC)cc1 (stereo unspecified)	-25%
Cc1nc(CNS(=O)(=O)c2ccc(Oc3ccccc3)cc2)cs1	-11%
COc1cc(C)ccc1OCCOCCOc1ccccc1Br	-7%
Cc1ccc(S(=O)(=O)NC2c3cccc4cccc(c34)C2Sc2nc(C)cc(C)n2)cc1 (stereo unspecified)	-3%
CCCOc1ccc(C(=O)N2CCCC2C(=O)O)cc1 (stereo unspecified)	-7%
NCC12CC3CC(C1)CC(CN)(C3)C2	-2%
C#CCN1C(=O)C(O)(CC(=O)c2ccc(OC)c(OC)c2)c2ccccc21 (stereo unspecified)	-15%
CN(C)CCc1c[nH]c2ccc(CS(=O)(=O)N3CCCC3)cc12	-6%
CCCCN(CC)CCCNC(=O)C1c2ccccc2C(=O)N(C)C1c1cn(C)c2ccccc12 (stereo unspecified)	-3%
CS(=O)(=O)Nc1ccc(C(=O)N2CCN(c3ccccc3)CC2)cc1	-21%
CCOc1ccccc1NC(=O)N1CCC(NC(=O)c2ccccc2C)CC1	-15%
CSCC[C@H](NC(=O)OC(C)(C)C)c1nnc(SCc2ccc(F)cc2)o1	-9%
O=C(NC(=S)Nc1ccc(N2CCOCC2)cc1)c1cncc(Br)c1	18µM*
COc1cccc(CNn2c(-c3cccc(C)c3)nc3ccccc3c2=O)c1O	-7%
Cc1cc(C)c2oc(-c3ccc(Cl)c(NC(=O)c4ccc(C#N)cc4F)c3)nc2c1	?
O=C(CSc1nc(-c2ccco2)cc(C(F)(F)F)n1)NCCc1ccccc1	-20%
O=C(NNc1c2ccccc2nc2ccccc12)c1ccc(O)cc1O	-5%
COc1ccc(OCC(O)CN(C2CCCCC2)C2CCCCC2)cc1 (stereo unspecified)	-4%
O=C(c1cccs1)N1CCN(C(=O)N2CCOCC2)CC1	2%
CC(NC(=O)Nc1ccc(F)cc1)C(c1cccs1)N1CCCC1 (stereo unspecified)	-9%
COc1cc(OC)c2c(c1)OC(c1ccc(OC)c(OC)c1)C(O)C2=O (stereo unspecified)	-23%
O=C1CCCC/C1=N\Nc1ccc(OCc2ccccc2)cc1	-4%
COc1ccc(NS(=O)(=O)c2ccc(OC)c3ccccc23)cn1	-20%
COC(=O)c1ccccc1Nc1cc(C)nc2nc(C)nn12	1µM*
CC(C)[C@H](NC(=O)c1ccccc1)C(=O)OCC(=O)Nc1ccc2c(c1)OCCO2	-9%
CC1(C)CN(c2ccccc2)N(C(=O)c2ccc(C#N)cc2)C1=O	-1%
CCOC(=O)N1CCN(C(=O)/C(=C/c2ccc(Br)cc2)NC(=O)c2ccc(OC)cc2)CC1	-5%
Cc1ccc(OCCNS(=O)(=O)c2ccc(N3CCCC3=O)cc2)cc1	-7%
COc1ccc(-c2nnc(Nc3ccc(OC)c(C(=O)N4CCCCC4)c3)c3ccccc23)cc1	14µM*
COc1ccc(OC)c(N=CC2=C(O)CC(C)(C)CC2=O)c1	-20%
COc1cc(/C=C(/C#N)c2ccc(F)cc2)ccc1OCc1ccc(C(=O)O)o1	?
Fc1ccc(SCCc2ccncc2)cc1	-18%&-4%
O=P(Cc1ccccn1)(c1ccccc1)c1ccccc1	3%
CCOC(=O)Cn1cc(C(=O)c2cccs2)c2ccccc21	-13%
O=S(=O)(Nc1cccnc1)c1cccs1	-16%
CCn1cc(C(=O)Nc2ccc(C)c([N+](=O)[O-])c2)cn1	-16%
CC1CCc2nc(NC(=O)C3CC3)sc2C1 (stereo unspecified)	-11%
CCn1c(O)c(N=NC(=O)CNC(=O)c2ccco2)c2ccccc21	-3%
O=c1c2ccccc2nc(CSc2ncnc3nc[nH]c23)n1-c1cccc(C(F)(F)F)c1	-19%
O=C(COc1cccc(Oc2ccccc2)c1)Nc1ncccn1	-9%
CCc1cccc(NC(=O)Cc2ccc(OC)c(OC)c2)c1	-8%
COc1cc(C(C)=O)ccc1OCC(O)CNCC1(N2CCCCC2)CCCCC1 (stereo unspecified)	-4%
O=C(COc1ccc(S(=O)(=O)N2CCOCC2)cc1)Nc1ccc2c(c1)OCCO2	-6%
O=C(NCCc1c[nH]c2ccccc12)c1cnc2sccn2c1=O	-9%
COc1ccc(C2c3c(-c4ccccc4O)n[nH]c3C(=O)N2CCc2ccc(OC)c(OC)c2)cc1 (stereo unspecified)	-23%
CCCCn1c(=O)c(F)cn(Cc2ccc(OC)c([N+](=O)[O-])c2)c1=O	-3%
COc1ccc(/C=N/Nc2snc(SC)c2C#N)cc1OC	?
O=C(Cn1nnc2c(cnn2-c2ccccc2)c1=O)N1CCN(c2ccccc2F)CC1	-9%
COc1ccc(N2C(=O)CSC23C(=O)Nc2ccccc23)cc1 (stereo unspecified)	-8%
Cc1ccccc1CSc1n[nH]c(NS(=O)(=O)c2ccccc2)n1	-24%
CCCCNC(=O)CC1N=C2c3ccccc3N=C(SCC(=O)Nc3ccc(OC)cc3)N2C1=O (stereo unspecified)	-10%
O=C(Nc1ccc(Nc2ccc3c(c2)C(=O)c2ccccc2C3=O)c2c1C(=O)c1ccccc1C2=O)c1ccccc1	-13%
CCNS(=O)(=O)c1ccc(NC(=O)Cn2nc(C(F)(F)F)cc2C)cc1	-5%
CCOC(=O)/C(C#N)=C/NC(=O)NC(C)(C)C	-2%
COCCn1c(SCc2c(F)cccc2Cl)nc2c1c(=O)[nH]c(=O)n2C	-20%
COC(=O)c1ccc(NC(=O)CSc2nnc(-c3ccncc3)n2C)cc1	-12%
COc1ccc(NC(=O)CN(Cc2ccccc2)Cc2ccccc2)cc1S(N)(=O)=O	-3%

# (list continues)
mol	HPGD block
Cc1ccc(C)n1-c1ccc(N2CCOCC2)c(Br)c1	-4%
O=c1c2cc(N3CCOCC3)ccc2[nH]c(=S)n1Cc1cccc(Cl)c1	?
CN1CCN(S(=O)(=O)c2ccc(NC(=O)c3cccs3)cc2)CC1	0%
CCCSCCCNC(=O)CC1Oc2ccccc2NC1=O (stereo unspecified)	-1%
COc1ccccc1/C=N\N=C(\N)c1ccccn1	-23%
COc1ccc(C(=O)/C=C/Nc2cc(C)on2)c(OC)c1	-13%
Cc1cc(=O)[nH]c(-c2ccccc2)n1	-7%
C/C(=N\NC(=O)CC(C)C)c1ccc(Cl)c(Cl)c1	-9%
CC(=O)NCCOc1nc(N(C)C)nc(N2CCOCC2)n1	-7%
CC(C)CC1NC2(C(=O)N(C)c3ccccc32)C2C(=O)N(C(C)C)C(=O)C12 (stereo unspecified)	-9%
CCOC(=O)c1cnn(CCOC(=O)Cc2cccs2)c1NC(=O)Cc1cccs1	-2%
Cc1ccc(NC(=O)COC(=O)C2(c3ccc(Cl)cc3)CCCC2)cc1	-8%
COn1c2c(c3c4no[n+]([O-])c4ccc31)CCCC2	-16%
COc1ccc(C(=O)O/N=C/c2c(C(F)(F)F)nn(C)c2SCc2ccccc2Cl)cc1	-14%
O=C(CCS(=O)(=O)c1ccc(Cl)cc1)Oc1ccc2c(c1)OCO2	-29%
CCCCN1CN(Cc2ccccc2)CNC1=S	5%
Cc1ccc(NC(=S)Nc2ccc(C(C)C)cc2)cc1S(=O)(=O)N1CCCCCC1	?
Cc1cc(C)n(-c2ccc(Cl)c(C(=O)OCC(=O)N3CCCCC3C)n2)n1 (stereo unspecified)	0%
CCN(CC)CC#CCC(O)(c1ccccc1)C1CCCC1 (stereo unspecified)	-13%
COc1ccccc1N1CCN(C(=O)CN(CCc2ccccc2)S(C)(=O)=O)CC1	-6%
CCCOC(=O)c1c(NC(=O)CCCn2nc([N+](=O)[O-])cc2C)sc(C(=O)OC)c1C	-6%
Oc1ccc(Nc2nc(N3CCCC3)c3ccccc3n2)cc1	-16%
CC(C)OCC(O)CN (stereo unspecified)	-8%
CCC(C)NC(=O)c1ccc(NC(=O)C2CCCO2)cc1 (stereo unspecified)	-7%
CNC(=O)CSc1nnc(COc2ccc(Cl)cc2)n1CCOC	-4%
COc1ccccc1-c1nnc(SCc2ccccn2)n1C	-15%
CCOC(=O)c1c(C)[nH]c2cc(Br)c(O)cc12	-15%
CCCCCCCCCn1c2c(c(=N)c3c1CCC3)CCC2	7%
N/C(CC(=O)Nc1cc(C(F)(F)F)ccc1Cl)=N\O	-4%
Oc1ccccc1C1=NCCNC(C(F)(F)C(F)F)=C1	6%

# Other results:
SMILES,HPGD block
c1ccc(COc2cccc(CN3CCN(c4ccccn4)CC3)c2)cc1,?
Cc1ccc(S(=O)(=O)N2Cc3ccccc3CC2C(=O)Nc2ccc3c(c2)OCO3)cc1 (stereo unspecified),-4%
COc1ccc(NC2CC(=O)N(C(C)C)C2=O)cc1 (stereo unspecified),-2%
CS(=O)(=O)NCCCNc1ccc(Cl)cc1[N+](=O)[O-],3%
CCc1nnc(NC(=O)CSc2nnc(-c3ccc(OC)cc3)n2C)s1,-7%
CC1Oc2ccccc2N(CC(=O)N2CCCc3ccccc32)C1=O (stereo unspecified),-7%
CCCNC(=O)c1cccc(COCC(F)(F)C(F)F)c1,-2%
O=C(NCCc1ccccc1F)C1CCCN1S(=O)(=O)c1ccccc1 (stereo unspecified),-3%
CN(C)C(=O)/N=N/C(=O)N(C)C,-2%
CC1(C)CC(=O)C2=C(C1)N(CC1CCCO1)C(=O)NC2(C(F)(F)F)C(F)(F)F (stereo unspecified),-8%
CCOc1ccc2[nH]c(=O)c(CN(Cc3ccco3)C(=O)c3cccc(F)c3)cc2c1,?
CC(C)OCCCN1C=C2C(=O)C(C)(OC(=O)CCc3ccccc3)C(=O)C=C2C=C1c1ccc(C#N)cc1 (stereo unspecified),-8%
CCCCCCCCNC(=O)c1cccnc1SCC(=O)Nc1ccc(OC)cc1OC,-28%
Cc1ccc(C(=O)CN(C(=O)c2ccc(Cl)c(Cl)c2)N2C(=O)C3C4C=CC(C4)C3C2=O)cc1 (stereo unspecified),-15%
O=c1[nH]c(N/N=C/c2ccccc2Br)nnc1-c1ccccc1,-17%
O=C(Oc1ccccc1N1C(=O)C2CC=CCC2C1=O)c1ccc(Br)cc1 (stereo unspecified),-7%

# With a hit mark in HPGD block, of those listed so far:
SMILES,HPGD block
O=C(NC(=S)Nc1ccc(N2CCOCC2)cc1)c1cncc(Br)c1,18µM*
COC(=O)c1ccccc1Nc1cc(C)nc2nc(C)nn12,1µM*
COc1ccc(-c2nnc(Nc3ccc(OC)c(C(=O)N4CCCCC4)c3)c3ccccc23)cc1,14µM*

# The list goes on:
SMILES,HPGD block
CCCC[C@@H]1C[C@H]1C(NC(=O)c1cccs1)c1ccc(Cl)cc1 (stereo partly specified),-14%
CCOC(=O)c1c(N)nn(C(=O)C(C)C)c1-c1ccccc1,-20%
Cc1ccc(-n2c(Cc3cccn3C)nnc2SCC(=O)Nc2ccc3c(c2)OCO3)cc1,-20%
CC(=O)Oc1ccc(-c2cccc(C(=O)OCC(=O)N(C)c3ccccc3)c2)cc1,-5%
CC(C)C(=O)N1CCN(c2ccc(NC(=O)c3ccc(Br)o3)cc2)CC1,2%
CCN(CC)CCOC(=O)C1(c2ccc([N+](=O)[O-])cc2)CCCC1,-1%&-5%
Cc1nnsc1NC(=O)OCc1ccccc1Cl,-2%
CCCC(=O)c1cc(O)c(O)cc1O,6.3µM*

# Retrieved one by one from above:
SMILES,HPGD block
CCCC[C@@H]1C[C@H]1C(NC(=O)c1cccs1)c1ccc(Cl)cc1 (stereo partly specified),-14%
Cc1nnsc1NC(=O)OCc1ccccc1Cl,-2%
CCOC(=O)c1c(N)nn(C(=O)C(C)C)c1-c1ccccc1,-20%
CC(C)C(=O)N1CCN(c2ccc(NC(=O)c3ccc(Br)o3)cc2)CC1,2%

# Gathered by group: those above containing a nitro group on carbon (6)
SMILES,HPGD block
Cc1cc(C)cc(NC(=O)/C=C/c2ccc([N+](=O)[O-])s2)c1,0%
CCn1cc(C(=O)Nc2ccc(C)c([N+](=O)[O-])c2)cn1,-16%
CCCCn1c(=O)c(F)cn(Cc2ccc(OC)c([N+](=O)[O-])c2)c1=O,-3%
CCCOC(=O)c1c(NC(=O)CCCn2nc([N+](=O)[O-])cc2C)sc(C(=O)OC)c1C,-6%
CS(=O)(=O)NCCCNc1ccc(Cl)cc1[N+](=O)[O-],3%
CCN(CC)CCOC(=O)C1(c2ccc([N+](=O)[O-])cc2)CCCC1,-1%&-5%

# More structures:
SMILES,HPGD block
Cc1ccccc1C1=NC(C(F)(F)F)(C(F)(F)F)c2c(n(-c3ccc(F)cc3)c(=O)[nH]c2=O)N1,?
COc1ccc(C(=O)COC(=O)C(CC(C)C)N2C(=O)c3ccccc3C2=O)cc1 (stereo unspecified),-12%
COc1ccc(OC)c(S(=O)(=O)Nc2ccccc2C(F)(F)F)c1,6%
CCN1CCCC1CNC(=O)c1cc2c(=O)n(C)c3ccccc3c2n1C (stereo unspecified),?
C=CCNC(=O)CSc1ccc(Cl)cc1,-15%
COc1ccc(C2=[N+](C)CCn3cccc32)c(OC)c1,-5%
c1ccc(CNc2oc(-c3ccccc3)nc2-c2cccc3ccccc23)cc1,-27%
c1cc2c(cc1C1CCCCC1)c1c3n2CCCNC3CCC1 (stereo unspecified),-11%
CC(C)Oc1cc(NC(=O)CSCC(=O)Nc2cccc(C(F)(F)F)c2)c(Cl)cc1Cl,-11%
O=C(NCCN1CCN(Cc2ccccc2)CC1)c1cc2c(=O)[nH]c3ccccc3c2s1,?
CCOC(=O)C1CCN(C(=O)CN(c2cc(OC)ccc2OC)S(=O)(=O)c2ccccc2)CC1,-1%

# Only part of the results is shown; rates above refer to the full screens.
